# ClpP mod – qHTS Assay for Activators of ClpP; 1.9% of 340,000 active; Potency, µM (highest dose often 57.5 µM), inactives show top-dose activity change, negative = active; purified B. subtilis ClpP, FRET peptide cleavage, 20 min; ATP-dependent Clp protease proteolytic subunit (Bacillus subtilis (strain 168)), P80244; active = well fitted falling curve with a large enough effect; inconclusive = small, poorly fitted or top-dose-only effect; inactive = no such curve, though single readings can be large or run the other way; note: potency is the fitted concentration of half-maximal effect; the source files actives as falling curves though it sought activators and does not explain the sign; nearly all actives have a fitted effect of over 65% in size; many hits overshoot -100%
# Target sequence (P80244 whole entry, looked up): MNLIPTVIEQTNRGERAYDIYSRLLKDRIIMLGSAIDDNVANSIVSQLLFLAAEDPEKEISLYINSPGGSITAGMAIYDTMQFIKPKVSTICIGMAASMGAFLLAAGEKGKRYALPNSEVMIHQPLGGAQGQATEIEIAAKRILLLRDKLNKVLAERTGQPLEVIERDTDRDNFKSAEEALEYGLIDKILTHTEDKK
#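 Purified B. subtilis ClpP, 10 microg/mL final in Tris/HCl pH8 with KCl, BSA, glycerol and Tween-20, cleaved an Abz/nitrotyrosine-quenched decapeptide. Fluorescence (ex 320, em 430) was read at 0 and 20 min at room temperature. Delta was normalized to 5.8 microM ADEP and DMSO/no-enzyme controls.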
# gsp antag – gsp mutant antagonism | Potency, µM (series often up to 76.9 µM), without a hit: at the top dose activity change, negative = inhibition, hits mostly inhibitors | AID 624288 | 0.4% of 340,000 active | gsp-mutant cells, cAMP HTRF, 30 min; control for the full effect not named in the record; active = falling curve of any shape with a large fitted effect; inconclusive = falling curve, mostly with a smaller effect; inactive = flat or rising curve; cell line not stated here;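 note: intracellular cAMP measured with PDE inhibitor Ro 20-1724 present during compound exposure; potency is the fitted concentration of half-maximal effect; % is set by controls: 0 for no effect and ±100 for the full control effect; nearly all actives have a fitted effect of over 65% in size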
#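 Measurement of cellular cAMP by homogeneous time-resolved fluorescence following a 30 min compound exposure at 37C. The PDE inhibitor […] was present throughout; the assay buffer was DPBS with 0.05% BSA and 0.005% Tween 20.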
# PINK1 modulator – changes PINK1 expression; 0.2% of 410,000 active; Potency, µM (doses to about 76.6 µM), for inactives: at the top dose activation (PINK1 increase), most hits filed as activators; PINK1 immunofluorescence, high-content cytometry, 24 h; active = well fitted activation curve with a large enough effect; inconclusive = small, poorly fitted or top-dose-only effect; inactive = flat fitted curve, though single readings scatter; cell line not stated here;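 note: potency is the fitted concentration of half-maximal effect; % of control where 0% means no effect; nearly all actives have a fitted effect of over 65% in size; a mitochondrial uncoupler was the plate control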
#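 Decision-based qHTS: stable cells, 24 h exposure to five compound concentrations, CCCP as control. Fixed cells stained for PINK1 plus nuclear, mitochondrial and cell markers, cytometer read.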
# Menin-MLL FL inh – menin-MLL binding inhibition, fluorescein peptide; Fluorescence polarization, fluorescein-MLL peptide displacement from menin; FP activity change, % at 61.4 µM; 290,000 tested, under 10 active; AID 1766; inconclusive = falling polarisation curve, or a change in total fluorescence; inactive = total fluorescence flat and polarisation flat or rising; no compound was filed as active; the % refers to the polarisation; negative = inhibition;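 note: % of control where 0% means no effect; inhibitors lower the polarisation; unlabelled MLL peptide was the positive control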
# Sfp PPTase inh – blocks B. subtilis Sfp PPTase activity; Q9F4F7; Biochemical Sfp PPTase activity, qHTS; Potency, µM, for inactives: max response, negative = inhibition, hits mostly inhibitors; 3.5% of 310,000 active; AID 1490; active = well fitted inhibition curve with a large enough effect; inconclusive = small, poorly fitted or top-dose-only effect, or another doubt; inactive = no such curve, though single readings can be large or run the other way;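 note: the enzyme is Sfp with the accession as filed and its product quenches rhodamine fluorescence; potency is the fitted concentration of half-maximal effect; 0% = enzyme reaction without inhibitor and -100% = no enzyme wells; top concentration of the series not given in the record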
#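 Fluorescence-quenching assay: 15 nM Sfp-PPTase preincubated 15 min at room temperature with compound, then 5 uM rhodamine-CoA and 12.5 uM BHQ-2-labelled YbbR peptide added. Fluorescence (ex 525/em 598 nm) read at start and after 30 min; difference gives rate.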
# D2 ag – activates the human D2 dopamine receptor; AID 624465; activation, % (test concentration not listed); 0.084% of 360,000 active; DiscoveRx PathHunter D2 beta-arrestin, luminescence, 90 min; 100% = 57 uM dopamine signal; in the data active = activation above about 40%; inconclusive = about 15% to 40%; inactive = below about 15%; note: compound concentration not given in the record; the text of the record calls up to 30% inactive
# Target sequence (P14416 whole entry, looked up): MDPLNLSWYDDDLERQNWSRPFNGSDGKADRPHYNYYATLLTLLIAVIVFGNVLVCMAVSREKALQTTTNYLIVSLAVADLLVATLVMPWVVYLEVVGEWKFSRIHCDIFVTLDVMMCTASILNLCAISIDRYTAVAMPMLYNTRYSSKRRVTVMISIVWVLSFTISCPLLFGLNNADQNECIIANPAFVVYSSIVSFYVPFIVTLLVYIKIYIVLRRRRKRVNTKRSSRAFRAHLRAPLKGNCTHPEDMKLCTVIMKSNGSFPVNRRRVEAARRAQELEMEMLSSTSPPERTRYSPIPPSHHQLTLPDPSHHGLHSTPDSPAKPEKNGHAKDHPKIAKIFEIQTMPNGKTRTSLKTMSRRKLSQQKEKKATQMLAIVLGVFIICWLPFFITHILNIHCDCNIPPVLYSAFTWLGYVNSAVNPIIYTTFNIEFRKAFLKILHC
#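 DiscoveRx PathHunter D2 beta-arrestin cells (2,100/well) attached overnight, then compound-stimulated 90 min at 37 C in HBSS/10 mM HEPES/0.1% Tween-20 buffer; beta-galactosidase complementation read by luminescence after 1 h at ambient temperature. Dopamine 57 uM final (EC100) as control.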
# gsp agonist – activates gsp, the McCune-Albright syndrome mutation. 0.13% of 340,000 active. gsp mutant cells, cAMP HTRF, 30 min; control for the full effect not named in the record. Potency, µM (series often up to 76.9 µM), inactives show top-dose activation (cAMP increase), hits mostly activators; active = well fitted activation curve with a large enough effect; inconclusive = small, poorly fitted or top-dose-only effect, or another doubt; inactive = no such curve, though single readings can be large or run the other way; cell line not stated here;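 note: phosphodiesterase inhibitor Ro 20-1724 added with compounds to block cAMP breakdown; potency is the fitted concentration of half-maximal effect; nearly all actives have a fitted effect of over 60% in size; about a fifth of the inactives were tested at one dose only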
#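 Cells stably selected in G418 were plated at 2000/well, grown 16-24 hr, then given compounds in DMSO with the PDE inhibitor […] (300 uM solution added) for 30 min at 37C; cAMP was read by HTRF.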
# * marks the source's active call; other numbers are inactive results; ? = inconclusive; · = not tested or not shown; [ ] = another dose, or the depositor's remark.
SMILES,ClpP mod,gsp antag,PINK1 modulator,Menin-MLL FL inh,Sfp PPTase inh,D2 ag,gsp agonist
CC(C)CC(NC(=O)C1CCCCC1)C(=O)NCc1ccccn1 (centres undefined),1.3%,5%,-0.3%,-1.2,7%,-2.0,15%
COc1ccc(C(=O)Nc2cccc(/C(C)=N/NC(=O)c3ccc([N+](=O)[O-])cc3)c2)cc1OC,-2.0%,-8%,8.8%,0.9,13%,-1.7,-19%
Cn1cc(/C=C(\NC(=O)c2ccccc2Cl)C(=O)NCCN2CCOCC2)c2ccccc21,-4.0%,-5%,0.7%,·,-1%,4.1,3%
Cn1nc(C(=O)NCc2ccc(F)cc2)c2ccccc2c1=O,-2.4%,4%,4.4%[38.3 µM],1.4,-4%,-3.1,15%
CCc1nc2ccccc2nc1N1CCN(S(=O)(=O)c2c(C)cc(Cl)cc2C)CC1,-16%,0%,1.1%,-0.4,-2%,-2.7,23%
O=C(C[C@@H]1C/C=C\C[C@H](Cc2ccc(F)cc2)C(=O)OC[C@@H](Cc2c[nH]c3ccccc23)NC1=O)NCCO,-1.5%,-12%,0.5%,·,·,-1.7,·
CCCCN(c1ccc(C(=O)OC)cc1)S(=O)(=O)c1ccccc1,·,?,3.8%,1.2,16%,-2.4,-29%
CN1OC[C@@H]2CN[C@H](c3cccc(-c4ccccc4)c3)C[C@@H]21,-0.6%,0%,-0.9%,·,·,-4.6,·
COc1cccc(OC)c1C(=O)Nc1nc(COc2ccccc2)cs1,?,?,8.4%,7.0,-11%,2.2,-6%
COC(=O)c1c(C)[nH]c(C(=O)COC(=O)Cn2cc(C(F)(F)F)ccc2=O)c1C,-3.0%,-2%,-0.6%,·,·,2.2,-9%[15.4 µM]
CS(=O)(=O)c1ccccc1C(=O)Nc1ccccc1Cc1ccccc1,·,-3%,0.1%,4.8,8%,1.4,14%
COc1ccc(-c2nnn(CC(=O)N(CCN3CCOCC3)C(C(=O)NC3CCCCC3)c3ccco3)n2)cc1 (centres undefined),-0.5%,-5%,1.3%,-1.3,6%,-4.1,-64%[inhibitor]
Nc1nonc1N/N=C\c1ccccc1,0.3%,-1%,-0.4%,3.8,8%,-4.1,-2%[15.4 µM]
CC(C)(C)OC(=O)NCCCC(CCCNC(=O)OC(C)(C)C)C(=O)O,1.3%,8%,-1.0%,3.7,1%,-4.6,-22%
O=C(CSc1nc(Cc2ccccc2)nc2ccccc12)Nc1nc2c(s1)CCCC2,-1.4%,-2%,2.5%[38.3 µM],0.5,-4%,0.6,16%
COc1ccc(C(=O)NNC(=O)CSc2nnc3ccccn23)cc1OC,·,5%,-2.9%,·,·,-2.3,11%
CC(=O)Nc1ccc(-c2ccnc3c2CC(C)(C(=O)NC(C)C)O3)cc1 (centres undefined),4.4%,·,2.3%,·,·,-5.7,·
CCCCn1c(N)c(N(CC(C)C)C(=O)Cc2ccc3c(c2)OCCO3)c(=O)[nH]c1=O,·,2%,-1.7%,·,·,-4.9,13%[15.4 µM]
S=C(NCc1ccccc1)N/N=C/c1cccs1,-1.1%,4%,0.4%,?,-13%,-3.3,?
Cc1cccc(C)c1C(O)c1ncc(-c2ccccc2F)[nH]1 (centres undefined),-0.3%,·,0.3%,·,·,-3.9,·
O=C(c1ccco1)N1CCN(Cc2nnnn2CCc2ccccc2)CC1,0.4%,10%,0.5%,-0.7,1%,0.8,-21%
O=[N+]([O-])c1ccc(S(=O)(=O)N(CCCN2CCOCC2)Cc2cccs2)cc1,-1.6%,3%,-0.8%,-2.7,-8%,14,24%
COC(=O)C1=C(C)NC(=O)NC1c1ccc(OCC(=O)N2CCCCC2)cc1 (centres undefined),-2.8%,10%[15.4 µM],-0.4%,-3.4,-3%,0.9,-30%
CC(C)Cc1cc(C(=O)NCCc2ccccc2)no1,0.5%,10%,0.8%,-0.7,9%,-2.3,-35%[inhibitor]
CN(C)S(=O)(=O)c1ccc(NC(=O)c2ccc(Br)o2)cc1,-0.1%,-6%,2.6%[38.3 µM],6.1,-5%,-0.3,-5%
COC(=O)c1ccc(NC(=O)CCN2CCN(CCC(=O)Nc3ccc(C(=O)OC)cc3)CC2)cc1,-0.6%,5%[15.4 µM],-0.2%,-1.6,13%,-5.1,4%
Nc1[nH]c(=O)[nH]c(=O)c1N=Nc1ccccc1Cl,-2.7%,-6%,-1.1%,-0.7,7%,-1.0,0%
N#CC1=C(N)n2c(s/c(=C\c3ccco3)c2=O)=C(C#N)C1c1ccco1 (centres undefined),-4.4%,-21%,2.8%,?,-86%,-4.0,12%
CCOC(=O)Cc1csc(SCC(=O)NC(C)C23CC4CC(CC(C4)C2)C3)n1 (centres undefined),-2.0%,-18%,4.0%,2.3,-9%,0.8,-2%[15.4 µM]
Cc1cc(C)nc(NC(=O)c2cccc(Br)c2)n1,·,9%,-0.1%,-3.6,20%,6.2,-20%
Cc1ccccc1N1CCN(CCCN2C(=O)C3CCCCN3C2=O)CC1 (centres undefined),0.7%,4%,0.2%,-2.0,18%,-4.9,-3%[15.4 µM]
CCOC(=O)c1cc2n(c1/N=C/N(C)C)-c1ccccc1C2=O,0.6%,1%,2.8%[38.3 µM],?,7.9µM*,-3.6,18%
Cc1nc(C(=O)N(C)C)nn1-c1cc(Cl)cc(Cl)c1,2.8%,-2%,-0.6%,5.0,11%,-1.9,13%
CC(C)N(Cc1nccn1C)C(=O)c1ccc2oc(Cc3ccccc3)nc2c1,1.1%,9%,0.1%,-1.9,5%,-3.8,-35%[inhibitor]
CC(=O)Nc1cccc(C(=O)/C=C/c2ccc(C)cc2)c1,-1.1%,4%,-1.9%,?,-3%,-4.9,3%
Cc1ccc(C(=O)c2cc([N+](=O)[O-])ccc2N2CCOCC2)cc1,-0.5%,3%,7.8%,-2.7,4%,-1.7,-6%
CC12CCC(=O)N1C(C(=O)Nc1nc3ccc(Cl)cc3s1)CS2 (centres undefined),·,-16%,1.3%,·,·,-1.2,4%[15.4 µM]
CCCCn1c(N)c(N(CCC(C)C)C(=O)c2ccc(-c3ccc([N+](=O)[O-])cc3)o2)c(=O)[nH]c1=O,1.5%,6%,?,·,·,-0.7,?
CSCCC(NC(=O)c1ccccc1)C(=O)NNC(=O)c1ccccc1 (centres undefined),0.9%,12%,-1.3%,·,·,5.7,-16%
Cc1ccc(NC(=O)CSc2nc(N)cc(N)n2)cc1S(=O)(=O)N1CCOCC1,·,9%,-2.5%,2.1,0%,1.5,11%[15.4 µM]
CC1CN(C(=O)c2cc3c(s2)CCC3)CC(C)O1 (centres undefined),0.6%,1%,3.9%[38.3 µM],2.3,-7%,-1.4,-32%[inhibitor]
O=C(N/N=C/c1cccnc1)c1ccc(F)cc1,-2.8%,2%,1.2%,0.4,16%,0.9,-3%[15.4 µM]
N#CC(NC(=O)OCc1ccccc1)c1ccccc1 (centres undefined),-0.4%,-4%,1.2%,·,·,-3.2,·
CCC(C)N(C(=O)CN1C(=O)NC2(CCc3ccccc32)C1=O)C1CCS(=O)(=O)C1 (centres undefined),-0.6%,5%,-0.4%,·,·,2.3,3%
O=C(O)C1CCC(c2ccc(-c3ccccc3)cc2)CC1 (centres undefined),·,7%,0.6%,-0.2,11%,2.6,2%
COC(=O)C1=CN(C2CC2)C=C(C(=O)OC)C1c1ccc(C(F)(F)F)cc1,·,6%,2.1%,-0.2,10%,-4.9,23%[15.4 µM]
CCN(CC)S(=O)(=O)c1ccc(NC(=O)C2CCCO2)cc1 (centres undefined),-3.9%,11%,?,2.1,14%,-2.4,-22%
COc1ccccc1CCC(=O)OCc1csc(CC(=O)Nc2ccccc2C)n1,-1.6%,-1%,1.4%,2.5,5%,0.8,-1%
COc1ccc(CNc2nc(-c3cccc(C#N)c3)nc3ccccc23)c(OC)c1,·,·,5.8%,0.0,-13%,·,·
CCCC/C=C/C(NC(=O)c1ccc(C(=O)OC)cc1)c1ccccc1 (centres undefined),-1.0%,-5%,1.3%,-0.2,14%,-1.2,3%
Cc1cc(C)c(C)c(S(=O)(=O)N2CCN(C(=O)c3ccco3)CC2)c1C,·,7%,0.1%,·,·,-0.4,9%[15.4 µM]
O=C(CN(C(=O)CCC(=O)Nc1ccccn1)C1CCCC1)NCc1ccccc1,·,8%,0.7%,3.6,14%,4.6,-1%[15.4 µM]
O=c1c2cc3c(=O)n(-c4ccccc4O)c(=O)c3cc2c(=O)n1-c1ccccc1O,0.3%,-1%,-0.8%,-3.5,-8%,0.6,2%
CCC(=O)Oc1ccc2oc(=O)cc(C)c2c1,-5.7%,11%,1.8%,7.1,2%,1.9,-3%
COC(=O)c1ccc(NC(=O)CN2C(=O)CNC2=O)cc1,-0.1%,11%,-1.1%,-1.4,14%,-2.9,-6%
O=C(O)CN1C(=O)/C(=C/c2ccccc2Br)Oc2ccccc21,3.6%,3%,-2.6%,3.0,25%,2.5,?
CN(C(=O)CCOc1ccccc1)c1c(N)n(Cc2ccccc2)c(=O)[nH]c1=O,·,6%,1.3%,·,·,-2.7,-3%[15.4 µM]
CCN(CC)c1ccc(C(=O)NC(=S)N2CCN(Cc3ccc4c(c3)OCO4)CC2)cc1,-1.3%,-15%,0.5%,2.2,3%,-4.2,-34%[inhibitor]
CC(C)c1cc(-c2cc(C(=O)Nc3ccccc3)on2)nc(NC2CCCC2)n1,?,-11%,4.3%,·,·,7.0,-39%[inhibitor]
COc1ccccc1CNC(=O)CN1C(=O)c2cccc(N)c2C1=O,-0.9%,5%,-1.4%,?,2%,3.6,-11%[15.4 µM]
Brc1ccc(/C=N/Nc2ccccn2)cc1,·,5%,-1.6%,1.3,9%,1.5,7%
OC(c1ccccc1)(c1nc(-c2cc3ccccc3o2)cs1)C(F)(F)F (centres undefined),-13%,·,8.1%,·,·,8.6,·

# From PubChem BioAssay
